Bioassay records deposited in PubChem BioAssay by Johns Hopkins Ion Channel Center.
KCNQ2 enhance – potentiators of rat KCNQ2 potassium channel; CHO-K1 KCNQ2, FluxOR thallium flux fluorescence; active compounds read high; B-score at 10 µM; hit rate 0.54% among 310,000; AID 2239;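 active = fluorescence ratio B-score at least 3 SD of library B-scores, with initial fluorescence B-score within 3 SD, cut at about 5.3 in these data; same plate scores as AID 2156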;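 note: B-score of peak minus minimum over baseline fluorescence ratio after K+ and Tl+ stimulus; positive B-score means potentiation of KCNQ2 with more thallium influx and brighter signal; only the inactives scoring about 0 or higher are listed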
Target sequence (O88943 whole entry, looked up): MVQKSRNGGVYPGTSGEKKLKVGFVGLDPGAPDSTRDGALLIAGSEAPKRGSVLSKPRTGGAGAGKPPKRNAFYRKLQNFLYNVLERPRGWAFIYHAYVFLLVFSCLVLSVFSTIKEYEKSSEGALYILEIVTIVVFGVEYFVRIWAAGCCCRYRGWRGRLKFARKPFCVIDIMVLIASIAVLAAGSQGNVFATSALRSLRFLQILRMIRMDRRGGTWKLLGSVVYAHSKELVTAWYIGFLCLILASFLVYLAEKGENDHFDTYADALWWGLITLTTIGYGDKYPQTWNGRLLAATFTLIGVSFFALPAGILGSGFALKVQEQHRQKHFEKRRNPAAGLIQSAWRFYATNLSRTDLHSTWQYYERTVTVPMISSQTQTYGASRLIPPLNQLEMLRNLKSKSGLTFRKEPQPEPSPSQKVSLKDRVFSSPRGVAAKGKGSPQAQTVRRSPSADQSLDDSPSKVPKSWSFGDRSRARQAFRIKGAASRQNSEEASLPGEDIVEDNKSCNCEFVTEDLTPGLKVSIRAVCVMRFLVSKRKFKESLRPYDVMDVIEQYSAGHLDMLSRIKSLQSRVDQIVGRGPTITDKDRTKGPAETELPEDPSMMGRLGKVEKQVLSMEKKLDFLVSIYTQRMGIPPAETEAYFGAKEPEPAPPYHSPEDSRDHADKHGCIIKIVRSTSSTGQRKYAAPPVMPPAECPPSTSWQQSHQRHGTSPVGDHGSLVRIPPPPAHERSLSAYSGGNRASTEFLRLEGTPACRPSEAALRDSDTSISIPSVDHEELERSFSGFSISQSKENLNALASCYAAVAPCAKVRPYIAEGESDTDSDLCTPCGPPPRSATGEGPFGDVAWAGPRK
KCNQ2 enhance baseline – also measured in KCNQ2 enhance; calls as there; B-score; compound at 10 µM; measured here: initial fluorescence intensity artifact check;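 brightness before thallium and not channel activity; 0 = typical well and far values either way flag optical interference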
Numbers without * were called inactive.

SMILES | KCNQ2 enhance | KCNQ2 enhance baseline
O=C(Cn1c(=S)[nH]c2ccccc2c1=O)NCCc1ccccc1 | 1 | -0.39
CC(C(=O)N1CCc2ccccc2C1)N(c1ccccc1)S(C)(=O)=O (configuration not stated) | 0.07 | 0.36
CC(=O)c1cccc(-n2nnnc2SCC(=O)Nc2ccccc2N2CCCCC2)c1 | 0.04 | -0.44
Cc1ccc(S(=O)(=O)C2(C(=O)NCCc3ccccc3)CC2)cc1 | 1.6 | -1.2
CC(=O)c1c(C)[nH]c(C(=O)Nc2ccc(Cl)cc2)c1C | 0.05 | 1.4
CNc1nnc(C(F)(F)F)s1 | 0.53 | 0.77
Cc1ccc(S(=O)(=O)N(CC(=O)Nc2ccc(C)cc2C)C(=O)N2CCN(C)CC2)cc1 | 0.35 | 0.4
Nc1nc(CSc2ncn[nH]2)nc(Nc2ccc(F)cc2)n1 | 1.6 | -0.13
CCCOc1ccc2oc(=O)c3c(c2c1)CCCN3C(=O)CN1CCc2ccccc2C1 | 0.26 | -2.1
Cc1nc2cc(C(=O)NCc3ccc4c(c3)OCO4)ccc2n1-c1ccc(Br)cc1 | 1.2 | -4
CCOc1ccc(-c2c(C(=O)N/N=C/c3cccnc3)nnn2-c2nonc2N)cc1 | 1 | -1.9
CC1CCN(Cc2cnc(Cl)s2)CC1 | 0.8 | 0.16
CCOCCOC(=O)c1[nH]c2c(c1C)C(=O)CC(c1cc(OC)c(OC)c(OC)c1)C2 (configuration not stated) | 0.84 | 0.43
Cc1ccc(NC(=O)CN2CCN(CCN=CC3=C(O)CC(c4ccccc4)CC3=O)CC2)cc1 (configuration not stated) | 0.38 | 1.5
CCn1c(SCC(=O)NC2CCCCC2)nc2c(c1=O)SCC2 | 0.83 | -0.2
CCCNC(=O)N1CCN(S(=O)(=O)c2ccc(C)cc2)CC1 | 0.88 | -0.1
CCN(CC)C(=O)CN1CCN(c2ccccc2F)CC1 | 1.9 | -1.2
O=[N+]([O-])c1ccc(Sc2nnnn2-c2ccccc2)nc1 | 0.02 | -1.8
O=C(NCCCNC(=O)c1cc(Cl)ccc1Cl)c1ccccn1 | 1.4 | -1.6
O=C(Nc1ccccc1)NC1CCCCNC1=O (configuration not stated) | 0.34 | 0.04
Cc1oc2cc3c(C(=O)N4CCCCC4)c(C)oc3cc2c1C(=O)N1CCCCC1 | 0.69 | -0.9
CCCCn1c(C(C)NC(=O)CC)nc2ccccc21 (configuration not stated) | 0.1 | -0.33
NC(=O)c1ccccc1Br | 0.3 | 0.97
O=C(Nc1ccc(N2CCN(C(=O)c3ccccc3F)CC2)cc1)c1cncc(Br)c1 | 0.1 | 0.63
O=S(=O)(c1ccccc1)N1CCN(c2nnnn2-c2ccccc2)CC1 | 0.91 | -1

2 records picked at random from the list so far, as already listed:
SMILES | KCNQ2 enhance | KCNQ2 enhance baseline
CCN(CC)C(=O)CN1CCN(c2ccccc2F)CC1 | 1.9 | -1.2
CC(=O)c1c(C)[nH]c(C(=O)Nc2ccc(Cl)cc2)c1C | 0.05 | 1.4

More compounds
SMILES | KCNQ2 enhance | KCNQ2 enhance baseline
CSCC[C@H](NC(=O)C1CCN(C(=O)[C@H](Cc2ccccc2)NS(=O)(=O)c2ccc(C)cc2)CC1)C(=O)O | 0.38 | 1.7
CCOC(=O)COc1cc([N+](=O)[O-])cc2cccnc12 | 1.2 | -0.08
O=C(CSc1ccc(-c2ccco2)nn1)NC1CCCC1 | 0.15 | -0.33
COc1ccc(S(=O)(=O)Nc2cc(C)on2)cc1OC | 0.83 | -0.01
CCOCCCN(C(=O)Nc1ccc(CC)cc1)C1CCN(C(C)=O)CC1 | 2.6 | -2
Cc1oc(-c2ccccc2Cl)nc1CS(=O)CC(=O)NCc1ccco1 (configuration not stated) | 1.4 | -0.33
O=C1N[C@H](Cc2ccccc2)C(=O)N[C@H]1Cc1cn(S(=O)(=O)c2ccccc2)c2ccccc12 | 1.3 | -0.89
NS(=O)(=O)c1ccc(CCNc2nc(C(F)(F)F)nc3ccccc23)cc1 | 0.02 | 0.12
COc1ccc(CCN(C)C2CCCN(C(=O)c3ccnn3C)C2)cc1OC (configuration not stated) | 2 | 2.1
O=C(NCc1ccccc1)Nc1cccn(Cc2ccccc2Cl)c1=O | 1.3 | 0.28
CC(C)c1ccc(-c2nc3c([nH]2)c(=O)n(C)c(=O)n3C)cc1 | 0.38 | 0.74
O=C(COc1ccc(NS(=O)(=O)c2ccc(F)cc2)cc1)N1CCOCC1 | 1.2 | -1.5
CC(=O)c1c(C)nc(Nc2nc(C)c3cc(C)ccc3n2)nc1C | 0.11 | 0.34
CC1=C(C(=O)OCc2ccccc2)C(c2ccc(N3CCOCC3)cc2)NC(=O)N1 (configuration not stated) | 0.03 | -0.49
C=CCN(CC=C)C(=S)NC(=O)c1ccc(OC)c(Br)c1 | 7.2* | 0.46*
CN1CCN(S(=O)(=O)c2ccc(-c3ccc(Cl)cc3)cc2)CC1 | 1.1 | -0.03
Cc1ccc(-c2csc(NC(=O)c3ccccc3Cl)c2C(=O)O)cc1 | 1.6 | 0
CN(C)CCNc1c2c(c(C#N)c3nc4ccccc4n13)CCCC2 | 0.84 | 0.02
CS(=O)(=O)c1ccc(N2CCN(C3CC(=O)NC3=O)CC2)cc1 (configuration not stated) | 0.11 | -0.59
O=C(OCCN1CCOCC1)c1cccc(F)c1 | 1 | 0.13
COC(=O)c1cccc(NC(=O)Cc2ccsc2)c1 | 0.06 | 0.57
COc1ccc(OCCC(=O)OCC(=O)NCc2ccccc2)cc1 | 0.78 | 0.74
CC1CCN(C(=O)C(C)NCc2ccc(F)cc2)CC1 (configuration not stated) | 1.3 | 0.45
Cc1ccccc1N1CC(C(=O)Nc2ccc(S(=O)(=O)NCC3CCCO3)cc2)CC1=O (configuration not stated) | 0.62 | 0.55
Cc1ccc2c(c1)C(=O)CC(O)(C(F)(F)F)O2 (configuration not stated) | 1.1 | -0.26
(further entries)
SMILES | KCNQ2 enhance | KCNQ2 enhance baseline
Cc1ccc(NC(=O)c2c(-c3ccccc3Cl)noc2C)nc1 | 0.09 | 0.21
NC(=O)c1cc2cc(Cl)ccc2oc1=Nc1cccc(C(F)(F)F)c1 | 0.11 | -0.52
O=C(O)COc1ccccc1/C=N/NC(=O)CN1CCN(S(=O)(=O)c2ccc(Br)cc2)CC1 | 0.48 | -0.11
COc1cc(/C=C/CO)ccc1O[C@@H]1O[C@H](CO)[C@@H](O)[C@H](O)[C@H]1O | 1.3 | 0.46
COc1cccc(NC(=O)CN(C)S(=O)(=O)c2ccc(C)cc2)c1 | 1.8 | -0.74
O=C(CSc1n[nH]c(=O)n1Cc1ccco1)N1CCOCC1 | 0.25 | -4.3
CCOC(=O)C1CCN(c2c(N3CCN(Cc4ccccc4)CC3)c(=O)c2=O)CC1 | 1.3 | 2.2
Cc1ccc(-n2c(C)nn(CC3CC3)c2=O)cc1 | 0.54 | 0.56
CCN(c1ccc2c(c1)OCO2)S(=O)(=O)c1cc(Br)cc2c1N(C(=O)C1CC1)CC2 | 0.18 | 0.4
CCN(CC)CCn1c(=S)[nH]c2ccccc2c1=O | 1.4 | 0.35
COc1ccccc1N1CCN(C(=O)c2ccoc2C)CC1 | 0.79 | 0
COc1ccccc1NC(=S)NCC1CCCCC1 | 0.92 | -0.06
Cc1ccn2c(CNCc3cnn(C)c3)c(C(=O)N3CCCCCC3)nc2c1 | 0.74 | -1.3
Cc1cccc(C(=O)NC(=S)N2CCN(C(=S)NC(=O)c3cccc(C)c3)CC2)c1 | 1.8 | -0.9
CCN(CC)S(=O)(=O)c1ccc(NCCCn2ccnc2)c([N+](=O)[O-])c1 | 0.35 | 1.1
O=C(NNC1CC(=O)N(c2ccc(Br)cc2)C1=O)c1cccs1 (configuration not stated) | 0.69 | 1.2
CN(C)S(=O)(=O)c1ccc(C(=O)NCc2ccc3[nH]c4c(c3c2)CCCC4)cc1 | 0.94 | 0.2
O=C(O)c1cccc(Nc2ccc([N+](=O)[O-])c3nonc23)c1 | 0.31 | -1.6
COC(=O)C1=C(C)NC(=S)NC1c1ccc(OCC(=O)N2CCCCC2)c(OC)c1 (configuration not stated) | 0.53 | 2.4
CC(=O)Nc1ccn(-c2ccccc2)n1 | 0.74 | 0.37
O=C1CC(=C(c2ccccc2)c2ccccc2)C(=O)N1CCCCN1CCN(c2cccc(Cl)c2)CC1 | 2.7 | 0.3
Fc1ccc(NCc2cccnc2)cc1 | 0.94 | -0.09
COC(=O)C1=C(C(C)=O)C(c2ccc(C(=O)OC)cc2)n2nnnc2N1 (configuration not stated) | 1.8 | -0.05
Cc1ccc(S(=O)(=O)N2CCC(C(=O)O)CC2)cc1 | 1.8 | -0.12
Cc1c(C(=O)OCC(=O)Nc2ccc3c(c2)OCO3)cccc1[N+](=O)[O-] | 0.09 | 0.14

Structures shown so far that have an aryl methoxy group, in the order listed:
SMILES | KCNQ2 enhance | KCNQ2 enhance baseline
CCOCCOC(=O)c1[nH]c2c(c1C)C(=O)CC(c1cc(OC)c(OC)c(OC)c1)C2 (configuration not stated) | 0.84 | 0.43
COc1ccc(S(=O)(=O)Nc2cc(C)on2)cc1OC | 0.83 | -0.01
COc1ccc(CCN(C)C2CCCN(C(=O)c3ccnn3C)C2)cc1OC (configuration not stated) | 2 | 2.1
C=CCN(CC=C)C(=S)NC(=O)c1ccc(OC)c(Br)c1 | 7.2* | 0.46*
COc1ccc(OCCC(=O)OCC(=O)NCc2ccccc2)cc1 | 0.78 | 0.74
COc1cc(/C=C/CO)ccc1O[C@@H]1O[C@H](CO)[C@@H](O)[C@H](O)[C@H]1O | 1.3 | 0.46
COc1cccc(NC(=O)CN(C)S(=O)(=O)c2ccc(C)cc2)c1 | 1.8 | -0.74
COc1ccccc1N1CCN(C(=O)c2ccoc2C)CC1 | 0.79 | 0
COc1ccccc1NC(=S)NCC1CCCCC1 | 0.92 | -0.06
COC(=O)C1=C(C)NC(=S)NC1c1ccc(OCC(=O)N2CCCCC2)c(OC)c1 (configuration not stated) | 0.53 | 2.4

More structures
SMILES | KCNQ2 enhance | KCNQ2 enhance baseline
CCOc1c2c(nc3ccc(Cl)cc13)CCC2 | 0.35 | -0.01
COc1ccc(C2CC(c3cccs3)=NN2S(C)(=O)=O)cc1OC (configuration not stated) | 0.02 | -0.72
CCCN(CCC)CC(=O)Nc1cccc2c1OCO2 | 0.7 | 1.3
CCOc1ccc(OCC)c(NS(=O)(=O)c2ccc3c(c2)n(C)c(=O)c(=O)n3C)c1 | 0.05 | 1
Cc1c(NC(=O)CSc2nnnn2-c2ccc(F)cc2)c(=O)n(-c2ccccc2)n1C | 0.48 | -0.68
CCN(CC)c1nc(N)c([N+](=O)[O-])c(NCCO)n1 | 0.43 | 0.63
C=CCNC(=O)c1ccc(-c2cccc([N+](=O)[O-])c2)o1 | 0.84 | -0.01
ClCc1nnc(-c2ccccc2)o1 | 0.47 | 0
C/C(=N\Nc1ccc([N+](=O)[O-])cc1)c1ccc(C#N)cc1 | 0.39 | -0.06
CCN(CC)c1ccc(CN(C(=O)c2cc(OC)c(OC)c(OC)c2)C2CCS(=O)(=O)C2)cc1 (configuration not stated) | 0.71 | -0.18
COc1ccc(-c2cnc3ccccc3n2)cc1NC(=O)CNC(=O)c1ccccc1 | 0.89 | -0.82
CC(=O)c1cccc(N(CC(=O)Nc2ccccc2F)S(C)(=O)=O)c1 | 0.4 | -0.05
CC(C)NCC(O)COc1ccc(CCOCC2CC2)cc1 (configuration not stated) | 2.6 | -2.4
CCOc1cc2[nH]c(=O)n(CCCCCC(=O)NC3CCCC3)c(=O)c2cc1OCC | 1.7 | -0.12
Nc1cc(N2CCCC2)c(Cl)cc1[N+](=O)[O-] | 1.4 | 1.9
COc1ccc(-c2nnc(Nc3nc4c(OC)cccc4s3)o2)cc1 | 5.5* | -1.5*
Cc1ccc(CN2C(=O)C3CCCN3c3ccc(S(=O)(=O)N4CCOCC4)cc32)cc1 (configuration not stated) | 2.5 | -3
COc1c2ccoc2nc2c(OC)c(OCC(OC(C)=O)C(C)(C)O)ccc12 (configuration not stated) | 0.22 | -1.1
Cn1cnnc1SCC(=O)N1CCN(C(=O)c2ccco2)CC1 | 1.6 | -0.05
O=C(NC(NC(=S)Nc1ccccc1C(=O)O)C(Cl)(Cl)Cl)c1ccco1 (configuration not stated) | 1.9 | -4.8
COC(=O)c1ccc(Cl)c(NC(=O)CN(c2ccc3c(c2)OCO3)S(C)(=O)=O)c1 | 0.33 | 0.25
Cc1ccc(O)c(-c2cc(C(F)(F)F)[nH]n2)c1 | 0.07 | -0.3
Cc1ccc(S(=O)(=O)CCC(=O)OCC(=O)NCc2ccc(Cl)cc2)cc1 | 0.6 | -0.03
CN1CCC(OC(=O)c2ccc(Cl)cc2Cl)CC1 | 0.49 | -0.48
O=C(O)c1ccccc1C(=O)NC1Cc2ccccc2C1 | 0.29 | 1.4
Additional entries.
SMILES | KCNQ2 enhance | KCNQ2 enhance baseline
C=CCN1C(=O)/C(=C2/Sc3ccc(OC)cc3N2C)SC1=Nc1ccccc1 | 1.6 | -0.56
CSc1ccc(CCNC(=O)CCc2nnc3ccc(NCCCN4CCCC4=O)nn23)cc1 | 0.7 | -0.4
O=C(O)c1ccc(COc2c(F)c(F)cc(F)c2F)o1 | 1.2 | -1.5
CCCc1cc(=O)oc2c(C)c(OCC(=O)NCCN3CCOCC3)ccc12 | 0.62 | -1.1
COc1ccc(Cc2nc3ccc(C(=O)NCc4ncc(C)[nH]4)cc3o2)cc1OC | 0.05 | 0.17
O=C(O)c1ccccc1C(=O)Nc1ccc(Oc2cccc(C(F)(F)F)c2)nc1 | 0.6 | 0.17
FC(F)(F)c1ccc(Cl)c(-n2c(-c3cc(C4CC4)[nH]n3)n[nH]c2=S)c1 | 1.5 | -2
O=C(NC(CO)C(O)c1ccc([N+](=O)[O-])cc1)C(Cl)Cl (configuration not stated) | 1.1 | -0.32
CCCCOC(=O)C1CCCC(C(=O)OCCCC)N1 (configuration not stated) | 0.18 | -0.05
CC(C(=O)NC(=O)NC1CCCCC1)N(C)CC(=O)Nc1ccc(F)c(F)c1F (configuration not stated) | 0.65 | -0.01

These rows are one share of the data, so the mix of outcomes need not match the whole.
